Source: PubChem BioAssay
RE007 growth inh: less growth of the S. pombe RE007 Vpr strain; AID 651644; Potency, µM (titrated, usually from 92.2 µM), inactives show at the highest dose activity change, negative = less growth; S. pombe RE007 Vpr strain, BacTiter-Glo ATP luminescence, 24 h; control for the full effect not named in the record; 360,000 tested, 0.21% active; active = well fitted falling curve with a large enough effect; inconclusive = small, poorly fitted or top-dose-only effect; inactive = no such curve, though single readings can be large or run the other way;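 note: % is set by controls: 0 for no effect and ±100 for the full control effect; nearly all actives have a fitted effect of over 50% in size; the assay follows cell death caused by Vpr and the record does not say whether a fall means rescue or toxicity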
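Fission yeast strain RE007, carrying one chromosomally integrated HIV-1 vpr copy, was seeded at OD 0.01 in PMG+AL medium with 23 nL pinned compound. After 24 h at 30 °C and 99% humidity, viability was read by BacTiter-Glo luminescence.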
LASV entry inh: inhibitors of Lassa virus binding or cell entry | Lassa virus pseudotype entry inhibition, cell reporter; control for the full effect not named in the record | 300,000 tested, 1.2% active | Potency, µM (series often up to 37.9 µM), without a hit: top-dose activity change, negative = inhibition, most hits filed as inhibitors; active means well fitted inhibition curve with a large enough effect; inconclusive means small, poorly fitted or top-dose-only effect, or effect the other way; inactive means flat fitted curve, though single readings scatter; tested in HEK293 cells; note: % is set by controls: 0 for no effect and ±100 for the full control effect; nearly all actives have a fitted effect of over 50% in size; luciferase read-out
SARS PLP yeast: blocks SARS-CoV papain-like protease in a yeast assay. S. cerevisiae expressing SARS-CoV PLpro, growth rescue; control for the full effect not named in the record. Potency, µM (top dose mostly 32.9 µM), without a hit: at the highest dose activity, positive = growth rescue. 330,000 tested, 0.19% active; active means well fitted rising curve with a large enough effect; inconclusive means small, poorly fitted or top-dose-only effect; inactive means no such curve, though single readings can be large or run the other way; note: 0% is about no effect; nearly all actives have a fitted effect of over 55% in size; growth read by luminescence after 48 h
StopGo reporter: FMDV 2A StopGo reporter, luciferase signal | human cells with a luciferase reporter of 2A StopGo recoding; control for the full effect not named in the record | Potency, µM (highest dose often 57.9 µM), without a hit: top-dose signal change, negative = less light | 410,000 tested, 1.2% active; active = well fitted falling curve with a large enough effect; inconclusive = small, poorly fitted or top-dose-only effect; inactive = no such curve, though single readings can be large or run the other way; tested in HEK293T cells; note: % is set by controls: 0 for no effect and ±100 for the full control effect; nearly all actives have a fitted effect of over 45% in size; luciferase light after 4 h
NS1 inh: inhibitors of influenza NS1 protein function; Potency, µM (titrated, usually from 46.1 µM), for inactives: at the highest dose activity, positive = more growth; 270,000 tested, 0.4% active; AID 2326; S. cerevisiae slowed by influenza A NS1, growth recovery by OD600; active means well fitted rising curve with a large enough effect; inconclusive means small, poorly fitted or top-dose-only effect; inactive means no such curve, though single readings can be large or run the other way; note: nearly all actives have a fitted effect of over 50% in size
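In this qHTS, NS1 from influenza A is expressed in budding yeast, where it slows growth. Cells are switched from glucose to 2% galactose medium (pH 6.0, -URA), treated with compound, and growth recovery is read at OD600.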
Cruzain inh Det: inhibitors of Trypanosoma cruzi cruzain with detergent. purified cruzain, Z-FR-AMC fluorescence, 0.01% Triton. Potency, µM, inactives show max response, negative = inhibition, usual class: inhibitors. 200,000 tested, 0.43% active. AID 1478;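 note: plate controls were neutral wells for no effect and buffer without enzyme for full effect; nearly all actives have a fitted effect of over 40% in size; top concentration of the series not given in the record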
Target sequence (P25779 123-467 limits assumed): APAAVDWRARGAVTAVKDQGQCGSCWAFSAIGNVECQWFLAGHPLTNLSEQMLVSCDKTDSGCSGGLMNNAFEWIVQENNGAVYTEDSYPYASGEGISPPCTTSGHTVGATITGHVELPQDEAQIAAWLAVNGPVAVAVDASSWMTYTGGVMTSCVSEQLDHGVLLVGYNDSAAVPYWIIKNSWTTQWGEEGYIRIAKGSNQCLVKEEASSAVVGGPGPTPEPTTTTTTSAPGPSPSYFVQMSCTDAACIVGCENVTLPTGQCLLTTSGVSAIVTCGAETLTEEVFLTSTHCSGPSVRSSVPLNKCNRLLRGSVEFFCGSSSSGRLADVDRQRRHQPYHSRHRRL
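Detergent-containing arm of a paired screen for aggregation-based inhibition: 0.01% Triton X-100 present. Cruzain at 1.5 nM cleaved 2 uM Z-FR-AMC at pH 5.5 with 5 mM DTT; AMC fluorescence gain over 60 s measured activity.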
Cruzain inh noDet: cruzain (T. cruzi) inhibition without detergent | 200,000 tested, 2.3% active | P25779 | Potency, µM, without a hit: max response, negative = inhibition, most hits filed as inhibitors | purified cruzain, Z-FR-AMC fluorescence, no detergent | AID 1476;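 note: plate controls were enzyme without inhibitor for no effect and buffer without enzyme for full effect; nearly all actives have a fitted effect of over 40% in size; top concentration of the series not given in the record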
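Purified cruzain at 1.5 nM, pre-incubated 15 min with compound at room temperature in 100 mM sodium acetate pH 5.5, 5 mM DTT, 0.00005% Triton X-100. Reaction started with 2 uM Z-FR-AMC; AMC fluorescence increase over 60 s gives rate.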
MARV entry inh: Marburg virus entry inhibition. Potency, µM (titrated, usually from 37.8 µM), without a hit: top-dose activity change, negative = inhibition, actives largely listed as inhibitors. 300,000 tested, 1.8% active. Marburg virus pseudotyped entry inhibition, cell reporter; control for the full effect not named in the record; about a third of the inactives were read at about 46 µM; active = well fitted inhibition curve with a large enough effect; inconclusive = small, poorly fitted or top-dose-only effect, or effect the other way; inactive = flat fitted curve, though single readings scatter; tested in HEK293 cells; about a fifth of its hits are not listed in these tables; note: % is set by controls: 0 for no effect and ±100 for the full control effect; luciferase read-out
Active calls of the source: *; ? = inconclusive; nt = not tested or not shown; & = joins results of further samples; [ ] = another dose, or the depositor's remark. Unless noted, calls come from the whole dose curve; as a rule, active = well fitted curve in the direction sought with a large enough effect; inconclusive = small, poorly fitted or top-dose-only effect, or another doubt; inactive = no such curve, though single readings can be large; an effect the other way counts as inactive or inconclusive. Potency is the fitted concentration of half-maximal effect. This is a random part of the collection. Share with any hit: about 4.5%.

nr	SMILES	Cruzain inh noDet	StopGo reporter	MARV entry inh	Cruzain inh Det	SARS PLP yeast	NS1 inh	LASV entry inh	RE007 growth inh
1	COc1nccnc1NS(=O)(=O)c1ccc(NC(=S)NC(=O)/C=C/c2ccc(F)cc2)cc1	?	-15%	-2%	-14%	-7%	20%	0%	-18%
2	CCOc1ccc(CNC(=O)C(=O)c2cn(CC(=O)N3CCOCC3)c3ccccc23)cc1OC	nt	9%	12%	nt	0%	-13%	1%	0%
3	COc1ccc(CNc2nc3ccccc3n2Cc2ccc(Cl)cc2)cc1OC	2%	-11%	11µM*	7.5%	-8%	-23%	?	-3%
4	CCCCNc1nc2ccccc2nc1NS(=O)(=O)c1ccc(F)cc1	nt	-15%	-13%	nt	-4%	4%	-2%	-4%
5	CC(=O)NS(=O)(=O)c1ccc(NC(=O)CSc2ccccc2)cc1	nt	-16%	nt	nt	-1%	6%	nt	14%
6	CCS(=O)(=O)n1nc(-c2ccco2)nc1N	nt	-13%	?	nt	0%	0%	-2%	3%
7	O=C(CO/N=C/c1cccc([N+](=O)[O-])c1)NC1CCCCCC1	4%	-18%	18%	-0.7%	11%	-24%	21%	2%
8	CC(=O)N(CCc1ccccc1C)Cc1cc2cc3c(cc2[nH]c1=O)OCO3	-3%	-24%	15%	-4.1%	11µM*	-3%	-11%	4%
9	CC(Oc1ccc(Cl)cc1)/C(N)=N/O (centres undefined)	nt	13%	?	nt	-1%	-5%	13%	-3%
10	Cc1cc(C)cc(N2C(=O)CN(Cc3ccccc3)C2=S)c1	nt	-16%	nt	nt	-2%	7%	nt	1%
11	Clc1cccc(C2=NC(c3cccs3)=Nc3ccc(Br)cc3N2)c1	?	-17%	-21%[46.1 µM]	-5.7%	nt	nt	-4%[46.1 µM]	nt
12	CCC(=O)N1c2ccccc2CC1C(=O)NCCCN1CCN(c2cccc(Cl)c2)CC1 (centres undefined)	7%	0%	nt	-0.4%	nt	nt	-3%[46.1 µM]	nt
13	COc1cccc(CN2CC(C(=O)N3CCCCCCC3)CCC2=O)c1 (centres undefined)	nt	0%	nt	nt	4%	-9%	nt	13%
14	O=C1NC(=O)N2CCSC2(Cc2ccccc2)N1 (centres undefined)	nt	1%	0%	nt	nt	nt	10%[46.1 µM]	4%
15	COc1ccc(OC)c(N(CC(=O)Nc2ccccc2)S(C)(=O)=O)c1	-6%	nt	-10%	2.0%	-1%	-4%	3%	-4%
16	CCN(CC)S(=O)(=O)c1ccc(C(=O)NCc2ccc3c(c2)cc(C)n3C)cc1	-29%	-28%	nt	5.1%	-4%	?	nt	5%
17	COc1cc(C(=O)NCC(=O)OCC(=O)c2ccc[nH]2)cc(OC)c1OC	0%	8%	-1%	-5.8%	9%	-7%	12%	-6%
18	O=C(CSc1nnc(-c2cccs2)o1)OCc1ccccc1	11%	-7%	-1%	-3.5%	5%	1%	-1%	-17%
19	OCCN1CCN(c2nc(-c3ccccc3)c3cc(Br)ccc3n2)CC1	nt	-8%	?	nt	-1%	8%	?	-18%
20	CC(C)c1ccc(CN(C(=O)/C=C/c2ccco2)C2CCS(=O)(=O)C2)cc1 (centres undefined)	nt	0%	-5%	nt	0%	3%	?	5%
21	CCc1ccc(S(=O)(=O)NCCc2csc(-c3cccnc3)n2)s1	6%	17%	nt	-7.4%	-13%	-26%	nt	-10%
22	CC(=O)OCC(=O)[C@@]1(OC(C)=O)[C@@H](C)C[C@H]2[C@@H]3C[C@H](F)C4=CC(=O)C=C[C@]4(C)[C@@]3(F)[C@@H](O)C[C@@]21C	?	-6%	22%	-1.7%	0%	-11%	-13%	4%[18.4 µM]
23	CCSc1nnc(NC(=O)Cn2cnc3ccccc3c2=O)s1	nt	-3%	nt	nt	0%	2%	nt	0%
24	CCOC(=O)c1sc2nc(N3CCOCC3)c3c(c2c1N)CCN(C)C3	-6%	nt	0%	-5.2%	3%	20%	nt	nt
25	COc1ccc(S(=O)(=O)N2CCCCC2)cc1NC(=O)CN1C(=O)NC(C)(C2CC2)C1=O (centres undefined)	nt	-23%	0%	nt	-1%	nt	10%	19%

Additional results.
nr	SMILES	Cruzain inh noDet	StopGo reporter	MARV entry inh	Cruzain inh Det	SARS PLP yeast	NS1 inh	LASV entry inh	RE007 growth inh
26	Cc1cc2c(cc1S(=O)(=O)CCC(=O)Nc1cccc(C(F)(F)F)c1)OCC(=O)N2	nt	-11%	2%[46.1 µM]	nt	-4%	-5%	-9%[46.1 µM]	15%
27	COc1cc(-c2nnc(-c3cc(-c4ccccc4)nc4ccccc34)o2)cc(OC)c1OC	nt	-23%	1%[46.1 µM]	nt	nt	nt	19%	14%
28	COc1ccc(CCNC(=O)Cc2c(C)c3ccc(O)c(C)c3oc2=O)cc1OC	-20%	-14%	-7%[46.1 µM]	-10%	nt	nt	1%[46.1 µM]	nt
29	O=c1[nH]c(O)c(/C=C2\C=Nc3ccc(Br)cc32)[nH]1	nt	-17%	nt	nt	-5%	6%	nt	3%
30	Cc1occc1-c1n[nH]c(=S)n1C	nt	1%	?	nt	-1%	6%	0%	8%
31	O=S(=O)(Nc1ccc(Cl)cn1)c1ccccc1	nt	47%[activator]	-9%[46.1 µM]	nt	-1%	-3%	19%	7%
32	COC(=O)c1ccccc1NC(=O)NCc1ccncc1	nt	-18%	nt	nt	-1%	-1%	nt	5%
33	COc1ccc(OCCSc2nc(C)c(Cc3ccccc3)c(=O)[nH]2)cc1	-12%	14%&-25%	8%&8%[46.1 µM]	-0.3%	-1%	nt	-13%[46.1 µM]	-6%
34	COc1ccc(CN(Cc2cccnc2)S(=O)(=O)c2ccc(-n3cnnn3)c(OC)c2)cc1	nt	1%	1%[46.1 µM]	nt	-19%	-5%	?	3%
35	CC#CCOC(=O)c1c(C)nc2sc3c(c2c1N)CCC(O)C3 (centres undefined)	7%	?	-38%&-38%&-38%&-42%	2.1%	nt	-9%	?	-8%
36	Cc1sc(NC(=O)CSc2nnc(C)c(=O)[nH]2)c(C#N)c1C	-9%	nt	3%	-3.0%	2%	-36%	21%	0%
37	CC(=O)Nc1ccc(C(=O)OCc2ccc(Br)cc2)cc1	?	-8%	9%	-12%	-69%	-28%	?	-10%
38	Cc1ccc(C(=O)NC(=S)NCC(=O)c2ccccc2)cc1	-2%	53%[activator]	12%	0.5%	-2%	-15%	-25%	0%
39	CCc1ccc(OCC(=O)N(Cc2ccc(OC)cc2)C2CCS(=O)(=O)C2)cc1 (centres undefined)	?	-5%	nt	-2.5%	nt	nt	-7%[46.1 µM]	nt
40	CNC(=O)COc1ccc(Nc2nnc(-c3ccc(C)c(S(N)(=O)=O)c3)c3ccccc23)cc1	nt	50%[activator]	3%	nt	4%	-2%	?	1%
41	COC(=O)c1nn(-c2c(C)n(C)n(-c3ccccc3)c2=O)cc1O	-4%	nt	17%	2.5%	-3%	-4%	3%	0%
42	Cc1ccc(-c2nnc(C)c(N3CCOCC3)n2)cc1	1%	-8%	?	11%	-4%	-10%	0%	-19%
43	Nc1nonc1OCCN1CCN(c2ccc([N+](=O)[O-])c3cccnc23)CC1	nt	?	?	nt	-3%	2%	1%[46.1 µM]	-12%
44	CCN(CC)c1ccc([C@H]2[C@@H]3CCCC[C@]3(O)CCN2CC(=O)NCc2ccco2)cc1	nt	-20%	?	nt	0%	-6%	2%	-1%
45	Cc1ccc(CN2c3ccccc3-c3nc(SCC(=O)Nc4c(C)cc(C)cc4C)ncc3S2(=O)=O)cc1	28%	-9%	nt	0.9%	nt	nt	?	nt
46	CSCCCN1CCC(n2nccc2NC(=O)CCCc2ccccc2)CC1	nt	6%	-20%	nt	-3%	11%	9%	18%
47	CCCNC(=O)NC(=O)CSc1nc2cc(C(=O)OC)ccc2c(=O)n1-c1ccccc1	10%	?	-10%	0.6%	15%	-6%	3%	-7%
48	CC1=CC(=O)N(c2cccc3c(N4C(=O)C=C(C)C4=O)cccc23)C1=O	nt	-13%	-11%	nt	nt	nt	-13%[46.1 µM]	-22%
49	O=C(CCCn1c(=O)[nH]c2ccsc2c1=O)N1CCN(Cc2ccc3c(c2)OCO3)CC1	-6%	-29%	22%&22%	-0.9%	12%	-6%	?	-8%
50	COc1ccc(CCN2CCCC(CN(C)Cc3cc(OC)c(OC)c(OC)c3)C2)cc1 (centres undefined)	nt	-10%	?	nt	-1%	-20%	?	0%

Given field by field: entries from further up.
26	Cc1cc2c(cc1S(=O)(=O)CCC(=O)Nc1cccc(C(F)(F)F)c1)OCC(=O)N2
  Cruzain inh noDet = nt
  StopGo reporter = -11%
  MARV entry inh = 2%[46.1 µM]
  Cruzain inh Det = nt
  SARS PLP yeast = -4%
  NS1 inh = -5%
  LASV entry inh = -9%[46.1 µM]
  RE007 growth inh = 15%

27	COc1cc(-c2nnc(-c3cc(-c4ccccc4)nc4ccccc34)o2)cc(OC)c1OC
  Cruzain inh noDet = nt
  StopGo reporter = -23%
  MARV entry inh = 1%[46.1 µM]
  Cruzain inh Det = nt
  SARS PLP yeast = nt
  NS1 inh = nt
  LASV entry inh = 19%
  RE007 growth inh = 14%

Next results.
nr	SMILES	Cruzain inh noDet	StopGo reporter	MARV entry inh	Cruzain inh Det	SARS PLP yeast	NS1 inh	LASV entry inh	RE007 growth inh
51	COc1ccc(N2CCN(C(=O)c3ccc(NS(=O)(=O)c4cccc(F)c4)cc3)CC2)cc1	-21%	28%	-3%	2.6%	-1%	-34%	1%	-7%
52	Cc1ccc(C)c(NS(=O)(=O)c2cc3c4c(c2)CC(=O)N4CCC3)c1	nt	38%[activator]	nt	nt	5%	20%	nt	2%
53	CCc1c(C)c(C#N)c2nc3ccccc3n2c1Nc1cccc(C(F)(F)F)c1	-4%	0%	-25%[46.1 µM]	-1.6%	nt	nt	-7%[46.1 µM]	nt
54	COc1ccc(N(CC(=O)NC2CCCCC2)C(=O)c2ccc(C)s2)cc1OC	nt	-10%	?	nt	8%	-8%	?	0%
